# Screening results deposited in PubChem by ICCB-Longwood Screening Facility, Harvard Medical School.
# Vaccinia pol inh: inhibitors of vaccinia virus processive DNA synthesis (E9 polymerase); in vitro processive DNA synthesis, absorbance read-out; stronger effect = lower value; some inactives read as strong as hits; normalized absorbance, % (no concentration beside the values); 46,000 compounds, 0.94% hits; AID 493162;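 active = replicate mean up to 90% and picked by the depositor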;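 also: 100% = median of the test wells of a plate; 100 nL library stock went into each well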
# * = called active by the depositor. The list is partial, so the mix of outcomes need not match the whole.
SMILES,Vaccinia pol inh
Cc1ccc(/C=C/C(=O)O)cc1S(=O)(=O)NCCO,100
O=C(NCN1C(=O)C2C3C=CC(C3)C2C1=O)Nc1cccnc1 (stereo unspecified),98
O=C(NCCc1c[nH]c2ccccc12)c1ccco1,99
O=C(CCSCc1cnn(-c2ccccc2)c1-n1cccc1)NC1CCCC1,109
Cn1nc(-c2ccc(C(N)=O)cc2)c2ccccc2c1=O,91
O=C(O)CC(NS(=O)(=O)c1ccc(Cl)cc1)c1ccco1 (stereo unspecified),100
CC(C)(C)c1cc(Cl)cc(C(=O)c2ccccc2)c1,101
COc1ccc(-c2[nH]ncc2-c2ccccc2)c(O)c1C,99
O=C(OCC(=O)N1CCCCC1)c1ccccc1OCc1ccc(F)cc1,107
CN(C)CCCNS(=O)(=O)c1cc(Cl)c(Cl)cc1Cl,105
CC(C)(O)C(=O)/C=C/c1ccccc1,100
CN(C)CCCSc1nc2ccccc2s1,91
OC(Cc1cccnc1)(c1ccccc1)c1ccccc1,106
COc1cccc(/C=C2\CC/C(=C\c3cccc(OC)c3)C2=O)c1,93
COC(=O)C12CCCC(C(=O)O)(CCC1)C2,100
CCc1cc2c(=O)c(-c3nc4ccccc4s3)c(C(F)(F)F)oc2cc1O,99
NC(Cc1ccccc1)c1nc2ccccc2[nH]1 (stereo unspecified),103
NC(=O)c1ccccc1N=Cc1ccc(O)c(O)c1,101
CCC(C)NC(=O)CN1C(=O)C(CC)Sc2ccccc21 (stereo unspecified),101
CC1=NN(C(=O)c2ccco2)C(O)(c2ccncc2)C1 (stereo unspecified),101
COc1ccc(C2Nn3c(C)nnc3SC2C(=O)c2ccc(Cl)cc2)cc1 (stereo unspecified),101
CC(C)(C)Nc1cccccc1=NCc1ccccc1,100
Brc1ccc2nc(N3CCCC3)sc2c1,98
CC1=NCCN1CCNC(=O)Nc1cc(C)cc(C)c1,91
COC(=O)c1cc(CCl)oc1C,90
COC(=O)Cn1cnc2sc(-c3ccccc3)cc2c1=O,98
CSc1nc2ccccc2c(=O)n1-c1ccccc1,88
O=C(CCCn1c(=O)[nH]c2ccccc2c1=O)NCCc1ccccc1,101
CC(=O)Nc1nc(COc2ccc3ccccc3c2)cs1,99
Cc1ccc(OCC(=O)Nc2ccc(N3CCOCC3)cc2)c(-n2nc3ccccc3n2)c1,88
COC(=O)CNC(=O)c1cn(CC(C)C)c(=O)c2cc(OC)c(OC)cc12,91
CCn1c(=O)c(-c2[nH][nH]c(=O)c2/C=N/c2nccs2)c(O)c2ccccc21,93
Cc1ccc(C(C#N)CC(=O)c2ccc(Cl)cc2)cc1 (stereo unspecified),102
CC1CN(c2nc3ccccc3nc2SCC(=O)NCCc2ccccc2)CC(C)O1 (stereo unspecified),100
COc1cccc2cc(C#N)c(=N)oc12,86
CC(=O)Nc1nnc(CCS(=O)(=O)c2ccc(C)cc2)s1,100
O=C(CSc1nc2ccccc2[nH]1)NC1CCCc2ccccc21 (stereo unspecified),102
Cc1ccc2cc3c(N)nn(C(=O)c4ccccc4F)c3nc2c1,102
CN1/C(=C/C(=O)C2CC2)C(C)(C)c2ccccc21,97
Brc1cc(Br)c2ncc(-c3ccc4ccccc4n3)cc2c1,100
CNC(=O)Nc1cc(C(F)(F)F)cc(C(F)(F)F)c1,105
CC(C)c1ccc(NC(=O)NCCS(C)=O)cc1 (stereo unspecified),104
O=C(O)c1cccc(CN2CCN(c3ccccc3)CC2)c1,100
O=C(Nc1ccc2c(c1)OCCO2)c1cccc2c1C(=O)N(Cc1cccnc1)C2,77
CCCC(Nc1cc(Cl)cc(Cl)c1)n1nnc2ccccc21 (stereo unspecified),100
CC(C)(C)NC(=S)Nc1ccccc1C(F)(F)F,83
Cc1c(C(=O)Nc2ccccc2N2CCN(C)CC2)sc2nc3n(c(=O)c12)CCCCC3,95
O=C(NCc1ccccc1)c1ccc(CN(c2ccccc2)S(=O)(=O)c2ccccc2)cc1,102
Cc1cc(C)c2c(n1)SCN(C)C2=N,98
CC(C)CN1CC(C(=O)O)CC1=O (stereo unspecified),100
Cc1cccc(N(C)C(=O)c2ccc3c(=O)n4c(nc3c2)CCCCC4)c1,103
CC1CCc2c(nc3ncnn3c2NCCC2CCCN2C)C1 (stereo unspecified),98
Cc1ccc(Cl)cc1N1CCN(C(=O)c2onc(C)c2Cl)CC1,83
Cc1c(OC(=O)c2ccco2)ccc2c3c(c(=O)oc12)CCC3,101
COC(=O)c1ccc(S(=O)(=O)N(C2CCCCC2)C2CCCCC2)n1C,107
CCc1ccc(NC(=O)c2cccc3c2SCCC3=O)cc1,92
CCOC(=O)c1noc(C)c1-c1csc(COc2cc(Cl)cc(Cl)c2)n1,94
COCCn1c(=O)[nH]c2cc(C(=O)OC)ccc2c1=O,99
Cn1c(C(=O)N2COCC2(C)C)cc2c(=O)n3ccccc3nc21,102
O=C1CCCc2nc(N3CCCCC3)sc21,92

# Carrying on.
SMILES,Vaccinia pol inh
c1cncc(-c2nc(-c3ccc4ccccc4c3)cs2)c1,97
CCC(CC)c1nnc(NC(=O)c2c(OC)cccc2OC)s1,102
CC(NC(=O)c1ccco1)C(=O)O (stereo unspecified),97
CN(Cc1ccccc1)C(=O)COC(=O)c1ccc(Cl)cc1N,102
CCC(C)c1ccc(O)c(NC(=O)c2cccnc2)c1 (stereo unspecified),100
O=c1c(Cc2ccc(Br)cc2)csc2ccccc12,106
CCC(=O)Nc1ccc(C(=O)O)cc1NC(=O)CC,100
Brc1ccc(/C=N/n2cnnc2SCc2ccccc2)cc1,101
CN(C1CCCCC1)S(=O)(=O)c1ccc(-n2cccn2)cc1,106
NC(=O)COC(=O)/C=C/c1ccc(I)o1,85
Cc1ccc2c(c1)c1c(n2C)C(C(N)=O)CCC1 (stereo unspecified),100
Cc1cc(C)c(C#N)c(SCc2ccccc2)n1,99
O=C(O)/C=C/c1nc(-c2ccccc2)n2ccccc12,88
Cc1ccc(SCc2cn3ccsc3n2)cc1,101
CCCS(=O)(=O)NCc1ccc2[nH]c(C)cc2c1,101
Cn1c(-c2ccc(F)cc2)nc2ccccc21,102
Cc1ccccc1OCC(=O)Nc1cccc(-c2nnc(-c3ccco3)o2)c1,101
Cc1ccc2oc(=O)c3cnn(CC(=O)NCC4(c5ccccc5)CCCC4)c3c2c1,84
O=S(=O)(/C=C/c1ccccc1)Nc1ccccc1,92
O=C1/C(=C/c2ccccc2)SC(=S)N1C1CCS(=O)(=O)C1 (stereo unspecified),100
COc1ccc(N2C(=O)c3ccccc3S2(=O)=O)cc1,104
COc1ccc(OC)c(S(=O)(=O)NC(C)c2ccccc2)c1 (stereo unspecified),100
COC(=O)c1sc(=S)n(-c2ccc(Cl)cc2)c1C,100
Cc1cc(C)n(-c2nc3cc(Cl)c(Cl)cc3n3c(C)nnc23)n1,100
C=CC1C[C@H]2CCC1C[C@H]2[C@H](O)c1ccnc2ccc(OC)cc12 (stereo partly specified),98
CCSc1nnc(NC(=O)C2CC=CCC2C(=O)O)s1 (stereo unspecified),100
NNC(=O)CS(=O)(=O)c1ccc(Cl)cc1,93
O=C(/C=C/c1ccc(Br)o1)/C=C/c1ccc(Br)o1,49*
CCC1NC(=S)NC(C)=C1C(=O)c1ccccc1 (stereo unspecified),98
O=C1C2CC=CCC2C(=O)N1c1ccc(Cl)cc1 (stereo unspecified),100
CC1(C)CC(=O)C2=C(C1)Nc1[nH]c(=O)[nH]c(=O)c1C2c1ccc(Br)cc1 (stereo unspecified),96
CCC1CCCN1Cn1cnc2c([nH]c3ccc(C)cc32)c1=O (stereo unspecified),101
Cc1ccc(S(=O)(=O)N(CC(=O)N2CCCCCC2)c2ccc(C)c(Cl)c2)cc1,100
C=CCn1cnc2sc3c(c2c1=O)CCC(C)C3 (stereo unspecified),100
COc1ccc(C(=O)NC(=S)Nc2ccc3[nH]c(=O)[nH]c3c2)cc1Br,100
Cc1cc(=O)[nH]c(SCC(=O)c2ccc(F)cc2)n1,100
Cc1c(C(=O)NC2CCN(Cc3ccccc3)CC2)cnn1-c1ccc(F)cc1,100
COc1ccc(C(=O)NCCn2ccc3ccccc32)cc1,94
c1ccc(Cn2cnc3ccccc32)cc1,87
Cc1cccc(NC(=O)CN2C(=O)CC(C)S(=O)(=O)c3ccccc32)c1 (stereo unspecified),95
Cc1nn(C)c(C)c1CNC(=O)c1ccc(N2CCOCC2)nc1,101
CCN(C(=O)CSc1nc2nc(C)c(Cc3cc(C)ccc3C)c(C)n2n1)c1cccc(C)c1,87
O=C(N[C@H](CO)[C@H](O)c1ccc([N+](=O)[O-])cc1)C(Cl)Cl,101
COC(=O)CC1C(=O)NCCN1C(=O)c1ccccc1 (stereo unspecified),110
O=C(O)Cn1c2ccc(Cl)cc2c2nc3ccccc3nc21,53*
CCOC(=O)c1oc2cc(O)c(CC)cc2c(=O)c1-c1ccc2c(c1)OCCO2,101
CCOC(=O)c1sc(NC(=O)c2ccco2)nc1-c1ccccc1,98
CC(C)Cc1ccc(S(=O)(=O)n2cccn2)cc1,89
O=C(Nc1ccon1)c1sc2cc(F)ccc2c1Cl,109
O=C(CC1CC2CCC1C2)NCc1ccccc1C(F)(F)F (stereo unspecified),104
Cc1cc2nc3s/c(=C4\C(=O)N(CC(=O)O)c5ccccc54)c(=O)n3c2cc1C,84
CN1C(=O)/C(=C\c2ccccc2)Sc2ccc(C(=O)NC3CCCCC3)cc21,81
O=C(NC(=O)c1ccccc1Cl)OCc1cccc(Oc2ccccc2)c1,111
COc1ccc2oc(=O)cc(CN(C)c3c(C)cc(C)cc3C)c2c1,112
O=S(=O)(Nc1ccccc1)c1ccccc1,98
CN1/C(=C\C(=O)COC(=O)C(C)(C)C)C(C)(C)c2ccccc21,103
CCOC(=O)c1c(N2C(=O)C=CC2=O)sc(C)c1-c1ccccc1,99
N#Cc1c(N)nc(SCC(N)=O)c(C#N)c1-c1ccc(Cl)cc1,100
S=C(c1ccc(-c2ccc(Cl)cc2)o1)N1CCN(c2ccccc2)CC1,101
Cc1cc(NC(=O)C2CCN(C(=O)OCc3ccccc3)CC2)n(C)n1,100

# Some of these compounds in order of length of the SMILES, lowest first.
SMILES,Vaccinia pol inh
O=C(CC1CC2CCC1C2)NCc1ccccc1C(F)(F)F (stereo unspecified),104
N#Cc1c(N)nc(SCC(N)=O)c(C#N)c1-c1ccc(Cl)cc1,100
Cc1cc(NC(=O)C2CCN(C(=O)OCc3ccccc3)CC2)n(C)n1,100

# The results go on:
SMILES,Vaccinia pol inh
CC(=O)Nc1ccc(Oc2cnc3ccccc3n2)cc1,102
CCOC(=O)c1cnn(-c2ccccc2)c1NC(=O)C(C)(C)C,100
COc1ccc(C2NCCc3cc(OC)c(OC)cc32)cc1 (stereo unspecified),100
O=C(Nc1c(F)cccc1Cl)N1CCOCC1,101
O=C(O)c1ccc2c(c1)NC(=O)C(CSCc1ccccc1Cl)N2 (stereo unspecified),39*
CCCc1nc2sc3c(c2c(=O)[nH]1)CCCC3,96
CSc1n[nH]c(=O)n1C1CCCCC1,99
CCCCC1CN2CCc3c([nH]c4ccccc34)C2(C)C1 (stereo unspecified),100
COc1ccc(OCC(=O)N(c2ccccc2)C(C)C)cc1,107
Cc1ccc(C(=O)C(C)OC(=O)c2cc(C)nc3ccccc23)cc1 (stereo unspecified),90
C=C1C2CC[C@H]3[C@]4(C)C[C@H](OC5OC(CO)C(OS(=O)(=O)O)C(OS(=O)(=O)O)C5OC(=O)CC(C)C)C[C@@H](C(=O)O)[C@H]4CC[C@]3(C2)[C@H]1O (stereo partly specified),99
COc1cccc(/C=C2\CC(C)C/C(=C\c3ccccc3OC)C2=O)c1 (stereo unspecified),100
CCOC(Cn1c(COc2ccccc2)nc2ccccc21)OCC,96
O=C1OC(c2ccc(-c3ccccc3)cc2)=N/C1=C\c1ccco1,99
CC1Cc2ccccc2N1C(=O)c1cc(Cl)cc(Cl)c1 (stereo unspecified),93
N#Cc1c(NC(=O)CSc2nnc3ccccn23)sc2c1CCC2,88
O=C(Nc1c(C(=O)c2ccccc2)oc2ccccc12)c1cccs1,100
O=C(CSc1ccccc1)N1CCN(c2ccc(F)cc2)CC1,99
COC(=O)c1ccccc1C(=O)c1ccccc1,92
CC(=O)Nc1ccc(S(=O)(=O)CCO)cc1,100
CCc1cc(-c2nc(N)ncc2-c2cscn2)c(O)cc1OC,100
COC(Cn1c(SCC(=O)Nc2cc(Cl)cc(Cl)c2)nnc1-c1ccccc1)OC,101
O=[P+](c1ccccc1)c1ccccc1,100
Cc1ccccc1N1C(=O)CS/C1=C(/C#N)C(=O)N1CCCCC1,100
c1csc(-c2cc(N3CCCCC3)c3ccccc3n2)c1,90
O=C(O)CCCSc1ncnc2sc3c(c12)CCCC3,100
COc1ccc(NC(=O)C2CC(c3cccc(OC)c3)=NO2)cc1 (stereo unspecified),100
N#Cc1cccnc1Oc1ccccc1,91

# Among those listed so far, 16 contain an aryl thioether with sulfur outside any ring.
SMILES,Vaccinia pol inh
CN(C)CCCSc1nc2ccccc2s1,91
CSc1nc2ccccc2c(=O)n1-c1ccccc1,88
CC1CN(c2nc3ccccc3nc2SCC(=O)NCCc2ccccc2)CC(C)O1 (stereo unspecified),100
O=C(CSc1nc2ccccc2[nH]1)NC1CCCc2ccccc21 (stereo unspecified),102
Brc1ccc(/C=N/n2cnnc2SCc2ccccc2)cc1,101
Cc1cc(C)c(C#N)c(SCc2ccccc2)n1,99
Cc1ccc(SCc2cn3ccsc3n2)cc1,101
CCSc1nnc(NC(=O)C2CC=CCC2C(=O)O)s1 (stereo unspecified),100
Cc1cc(=O)[nH]c(SCC(=O)c2ccc(F)cc2)n1,100
CCN(C(=O)CSc1nc2nc(C)c(Cc3cc(C)ccc3C)c(C)n2n1)c1cccc(C)c1,87
N#Cc1c(N)nc(SCC(N)=O)c(C#N)c1-c1ccc(Cl)cc1,100
CSc1n[nH]c(=O)n1C1CCCCC1,99
N#Cc1c(NC(=O)CSc2nnc3ccccn23)sc2c1CCC2,88
O=C(CSc1ccccc1)N1CCN(c2ccc(F)cc2)CC1,99
COC(Cn1c(SCC(=O)Nc2cc(Cl)cc(Cl)c2)nnc1-c1ccccc1)OC,101
O=C(O)CCCSc1ncnc2sc3c(c12)CCCC3,100
